RanGTP-Imp inh: disruptors of Ran-importin-beta complex formation – biochemical, FRET, CFP-Ran, YFP-importin-beta, homogeneous, primary screen; cell-free CFP-Ran/YFP-importin-beta FRET ratio; inhibition, % (no concentration beside the values); 300,000 tested, 1.1% active; AID 2216;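 active = most replicates above 15%; inconclusive = exactly half above 15%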;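 also: 0% = DMSO wells and 100% = Ran loaded with GDP instead of GTP; wells of about 40 µL received 100 nL stock; the first replicate is given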
HNF4A DNA FP: change in binding of human HNF4 alpha to DNA | P41235 | HNF4a-FITC DNA binding, fluorescence polarization, 1 h | activity change, % at 10 µM | 360,000 tested, 0.3% active | AID 1224865; in the data active = activity change above about 30%, passing the limit was not always enough;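 also: controls were the assay level and a saturating level of protein; the project sought stronger binding though the title names inhibitors; some compounds called inactive have numbers as strong as hits; positive values seem to mean higher polarization but the record does not say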
Target sequence (P41235 whole entry, looked up): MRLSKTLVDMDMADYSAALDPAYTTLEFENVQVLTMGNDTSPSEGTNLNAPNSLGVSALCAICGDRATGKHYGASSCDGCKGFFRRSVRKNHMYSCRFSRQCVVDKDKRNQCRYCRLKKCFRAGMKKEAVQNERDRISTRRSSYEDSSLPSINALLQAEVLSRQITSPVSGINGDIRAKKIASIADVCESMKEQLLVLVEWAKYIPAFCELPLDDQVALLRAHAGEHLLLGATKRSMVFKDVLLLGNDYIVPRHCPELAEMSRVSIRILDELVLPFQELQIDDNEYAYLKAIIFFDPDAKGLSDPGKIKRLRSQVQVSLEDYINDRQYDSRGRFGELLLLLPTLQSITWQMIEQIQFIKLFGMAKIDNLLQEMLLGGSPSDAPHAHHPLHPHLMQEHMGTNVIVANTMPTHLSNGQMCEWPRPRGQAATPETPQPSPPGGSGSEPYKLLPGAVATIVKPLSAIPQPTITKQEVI
Vif TR-FRET: HIV-1 Vif–A3G interaction blockers – biochemical, TR-FRET, GST-Vif 1-94, biotin-A3G peptide, dose response retest, primary screen (AID 1117319). inhibition, %, or IC50 in µM where a hit was titrated. TR-FRET GST-Vif / biotin-A3G peptide binding; higher % means a stronger effect; test concentration not given here; strong numbers were not always called active. 260,000 tested, 0.57% active;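 active = above the screen mean plus three standard deviations and confirmed in dose response; inconclusive = results disagree or hit not tested in dose response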;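 also: Vif residues 1-94 fused to GST binding biotinylated APOBEC3G peptide 110-148; 0% = full assay without inhibitor and 100% = GST in place of GST-Vif; retest series ran down from 100 µM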
AF4-AF9 inh: MLL-AF4/AF9 protein interaction inhibition | P42568 | AlphaScreen, biotin-AF4 peptide binding to FLAG-AF9 | AID 651704 | inhibition, % at 10 µM | 350,000 tested, 0.47% active;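 active = every replicate reaching a set inhibition limit, whatever the replicate mean, cut at about 25% in these data; inconclusive = mean inhibition reaches that limit but some replicates miss it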;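 also: 0% = plate neutral control median and 100% = total signal loss; the record names both 10 and 1 µM as test concentration; the first replicate is given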
UCH37 inh: human UCH37 deubiquitinating enzyme inhibition; Q9Y5K5; purified proteasome/UCH37, Ub-AMC cleavage fluorescence; inhibition, % (test concentration not listed); 330,000 tested, 0.33% active; AID 588478;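 active = mean of two replicates above 20%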;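 also: 0% = compound-free wells with enzyme and 100% = wells lacking proteasome; stock transfer was 100 nL into about 20 µL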
Target sequence (Q9Y5K5 whole entry, looked up): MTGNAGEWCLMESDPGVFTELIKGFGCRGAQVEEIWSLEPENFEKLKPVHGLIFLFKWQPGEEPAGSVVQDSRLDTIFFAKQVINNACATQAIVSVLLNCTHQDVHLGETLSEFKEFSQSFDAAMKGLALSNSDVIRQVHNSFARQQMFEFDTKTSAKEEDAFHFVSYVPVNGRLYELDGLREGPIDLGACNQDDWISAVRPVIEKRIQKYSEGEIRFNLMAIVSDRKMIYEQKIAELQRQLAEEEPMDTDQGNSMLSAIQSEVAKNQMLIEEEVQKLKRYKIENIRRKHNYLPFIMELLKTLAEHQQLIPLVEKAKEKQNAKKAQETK
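Material: human UCH37 enzyme supplied as purified proteasome complex. Measure: % inhibition of Ub-AMC cleavage fluorescence. Medium: pH 7.4 Tris-HCl (50 mM) with ovalbumin, ATP-MgCl2, DTT. Times: 30 min preincubation with enzyme, 25 min cleavage at room temperature. Detection: AMC fluorescence intensity at 355/460 nm.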
FGF22 binding: FGF22 (human) thermal shift binding; Q9HCT0; recombinant FGF22 thermal shift, SYPRO orange fluorescence; percent of sucrose octasulfate shift, DMSO zero; calls only at 9.99 µM; 340,000 tested, 1.5% active; AID 651658;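 active = melting point raised past a set limit in the mean and every replicate; inconclusive = no clear call; three in four hits are not shown here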
Target sequence (Q9HCT0 whole entry, looked up): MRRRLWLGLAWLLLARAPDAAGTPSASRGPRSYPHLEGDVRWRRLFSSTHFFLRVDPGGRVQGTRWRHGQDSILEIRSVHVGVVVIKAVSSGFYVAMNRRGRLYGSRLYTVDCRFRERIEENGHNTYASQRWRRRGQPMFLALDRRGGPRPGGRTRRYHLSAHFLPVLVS
Ecoli growth: E. coli growth inhibition; 330,000 tested, 0.21% active; OD600 absorbance (no concentration beside the values); Escherichia coli growth, OD600, 23 h; hits give low values;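 active = OD600 absorbance below the run mean of sample wells minus 3.6 SD, in any replicate, cut at about 0.56 in these data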;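 also: stock transfer was 300 nL into about 60 µL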
* hit, by the source's call; i = inactive; ? = inconclusive; / = no result given; & = joins results of further samples. An excerpt (hit frequency here may not be typical).

SMILES	RanGTP-Imp inh	HNF4A DNA FP	Vif TR-FRET	AF4-AF9 inh	UCH37 inh	FGF22 binding	Ecoli growth
O=C1CC(CSc2ccc(Cl)cc2)=NN1	0.1	7.8	-2.9%	-5.9	1.1	i	0.616
COc1ccc(CCNC(=O)c2ccnc(C(C)(C)C)c2)cc1OC	-2.1	-3.5	/	-1.1	2.2	i	0.652
COc1cc(CNc2ncnc3c2ncn3[C@H]2CN(Cc3cccc(C(F)(F)F)c3)C[C@@H](COC(C)=O)O2)cc(OC)c1OC	/	0.6	/	-2.5	/	i	/
COc1ccc(/C=N/NC(=O)c2cccc([N+](=O)[O-])c2)cc1OS(=O)(=O)c1ccc(C)cc1	1.1	3.5	-4.0%	/	/	/	/
Nc1nnc(-c2ccncc2)s1	0.0	-1.0	-10.6%	/	-67.2	/	0.675
O=c1[nH]c(N2CCc3ccccc3C2)nc2c1CCC2	5.4	1.0	-4.1%	/	3.1	/	0.706
COc1ccc(Cc2nnc(NC(=O)c3cc(OC)c(OC)c(OC)c3)s2)cc1OC	3.2	2.5	-4.0%	-13.6	1.8	i	0.714
CC(C)CNC(=O)N1c2ccccc2Sc2ccccc21	1.3	1.2	-5.7%	-1.9	1.5	i	0.704
Cc1ccc(C(C)(C)NC(=O)C2CCC(=O)N(CC3CCCCC3)C2)cc1 (stereo unspecified)	-1.5	0.5	/	-1.9	-0.3	i	0.675
CC(NS(=O)(=O)c1ccc(Cl)c(Cl)c1)C(=O)OCC(=O)N1CCCCCC1 (stereo unspecified)	/	-2.5	/	-14.6	-1.2	i	0.717

An excerpt from above in order of their number in HNF4A DNA FP, smallest number first:
canonical_smiles | HNF4A DNA FP
Nc1nnc(-c2ccncc2)s1 | -1.0
COc1ccc(Cc2nnc(NC(=O)c3cc(OC)c(OC)c(OC)c3)s2)cc1OC | 2.5
COc1ccc(/C=N/NC(=O)c2cccc([N+](=O)[O-])c2)cc1OS(=O)(=O)c1ccc(C)cc1 | 3.5

Other compounds
SMILES	RanGTP-Imp inh	HNF4A DNA FP	Vif TR-FRET	AF4-AF9 inh	UCH37 inh	FGF22 binding	Ecoli growth
CC(=O)Nc1ccc(C(=O)OCC(=O)c2ccc(C)c([N+](=O)[O-])c2)cc1	-1.7	-3.4	0.5%	/	6.2	/	0.794
CCOc1cc(C#N)ccc1OCC(=O)NNC(=O)CC1CCS(=O)(=O)C1 (stereo unspecified)	/	-5.5	0.2%	3.7	0.2	i	0.702
COc1ccc(C(=O)CN2CCN(c3ncccn3)CC2)cc1	-2.0	-2.4	/	-17.9	3.8	i	0.658
CC1CC(=O)N(CCc2ccccc2)C(=O)C1	/	4.2	4.4%	3.6	2.8	i	0.679
Cc1cccc(CCNC(=O)CCc2nc(-c3ccccc3F)no2)c1	3.5	5.4	65.9%	/	-4.9	/	0.78
Cc1ccsc1/C=N/Nc1ccc(F)cc1F	4.3	3.0	/	15.5	/	i	/
Cc1cccc(-n2nc(C(=O)Nc3ccccc3)n3c(=O)cc(-c4ccccc4)nc23)c1	7.1	0.3	-1.8%	/	0.7	/	0.722
CN(C)CCN1C(=O)C(=O)/C(=C(/O)c2ccc3c(c2)OCCO3)C1c1ccccn1 (stereo unspecified)	24.3*	-2.9	-10.7%	-5.2	10.3	i	0.685
CCCCCCCCNC(=O)CCNC(=O)c1ccc(C(C)(C)C)cc1	7.1	0.2	4.8%	6.3	6.9	i	0.664
O=S(=O)(CC(O)(c1ccccc1)c1ccccc1)CC(O)(c1ccccc1)c1ccccc1	/	-3.6	-7.2%	-1.7	/	i	/

RanGTP-Imp inh, what is marked active above
Molecule	RanGTP-Imp inh	HNF4A DNA FP	Vif TR-FRET	AF4-AF9 inh	UCH37 inh	FGF22 binding
CN(C)CCN1C(=O)C(=O)/C(=C(/O)c2ccc3c(c2)OCCO3)C1c1ccccn1 (stereo unspecified)	24.3*	-2.9	-10.7%	-5.2	10.3	i

Next records:
SMILES	RanGTP-Imp inh	HNF4A DNA FP	Vif TR-FRET	AF4-AF9 inh	UCH37 inh	FGF22 binding	Ecoli growth
COc1ccc(OC)c(S(=O)(=O)NCC(=O)O)c1	-1.7	-0.5	2.5%	1.5	2.3	i	0.709
CC1(c2ccc3c(c2)OCCCO3)NC(=O)N(CC(=O)Nc2cccc(C#N)c2)C1=O (stereo unspecified)	/	2.9	22.1%	-23.8	-2.1	i	0.675
COc1ccc(N(CC(=O)NCCSCc2ccc(Cl)cc2)S(C)(=O)=O)cc1Cl	0.4	-1.0	/	-0.6	5.9	i	0.686
COc1cc(C(=O)N(Cc2cccnc2)Cc2cc3cc4c(cc3[nH]c2=O)OCCO4)cc(OC)c1OC	1.0	1.8	-0.8%	/	-155.1	/	0.665
Cc1ccc(C(=O)Nc2scc(-c3ccccc3)c2C(=O)O)cc1	4.2	0.1	/	-1.4	0.2	i	0.648
O=C(O)CC(NS(=O)(=O)c1ccc2c(c1)OCCO2)c1ccccc1[N+](=O)[O-] (stereo unspecified)	/	2.0	-4.3%	-0.6	0.3	i	0.683
C/C(=N\NC(=O)c1ccc(N)cc1)C1CC1	-3.7	-4.7	/	-2.1	/	i	/
O=C(C1=NNCC1c1ccc(Cl)cc1)C1CO1 (stereo unspecified)	?	3.6	-9.4%	-2.2	5.7	i	0.666
C/C(=N/NS(=O)(=O)c1ccccc1)c1ccc(NC(=O)C2CC2)cc1	3.3	-1.3	-5.4%	-4.6	/	i	/
CC1CCCN(C(=O)c2sc3cc([N+](=O)[O-])ccc3c2Cl)C1 (stereo unspecified)	4.1	1.8	3.3%	/	4.7	/	0.746
O=C(Cn1c(=O)ccn(Cc2ccccc2)c1=O)Nc1cccc(S(=O)(=O)N2CCOCC2)c1	/	-0.5	-5.8%	-1.3	0.2	i	0.66
O=C1NC[C@H](Cc2ccccc2)N(C[C@H]2CCCN2C[C@H](Cc2ccccc2)N2C[C@H](Cc3ccc(O)cc3)N(CC3CCCCCC3)C(=O)C2=O)C1=O	/	1.0	-1.4%	-0.3	/	i	/
Cc1cc(NC(=O)CSc2ncccc2C(=O)O)no1	-2.9	6.5	10.5%	-0.5	2.2	i	0.698
O=C(Cc1ccccc1F)Nc1ccc(SC(F)F)cc1	-4.1	-2.0	27.8%	-1.7	2.1	i	0.669
Cc1ccc(C)c(N2CCN(Cc3nnnn3C3CCCCC3)CC2)c1	2.1	-1.7	?	/	0.0	/	0.688
COc1ccc(CN(CC(=O)NC2CCCC2)C(=O)CN2C(=O)COc3ccccc32)cc1	5.0	-0.3	/	-25.6	0.4	i	0.625
COC(=O)[C@]1(C)N[C@H](CN(C)C(=O)c2ccc(F)cc2)[C@@H]2C(=O)N(C)C(=O)[C@@H]21	/	-7.9	0.5%	0.4	1.9	i	0.667
Nc1nc(Nc2ccccc2F)nc(NC2CCCCC2)c1[N+](=O)[O-]	1.6	0.5	-1.9%	-2.8	2.0	i	0.682
CC(=O)c1ccc(OCCn2c(SCC(=O)O)nc3ccccc32)cc1	-0.7	-7.3	/	-0.5	0.7	i	0.652
CCC(=O)N(Cc1cc2c(C)cc(C)cc2[nH]c1=O)C1CCCCC1	0.9	0.6	-3.9%	/	3.3	/	0.669
COCCNC(=S)N/N=C/c1ccc(OCc2ccc(C(=O)OC)cc2)cc1	1.3	1.2	/	-3.9	/	i	/
C=CCOc1c(Br)cc(C2C3=C(CCCC3=O)N(C)C3=C2C(=O)CCC3)cc1OCC	101.4*	-1.0	/	-24.7	-436.2	i	0.664
O=C(Nc1ccc(Cl)cc1)Nc1ccccc1Sc1ncc([N+](=O)[O-])s1	2.5	-0.4	24.4%	/	/	i	/
Cc1cccc[n+]1CC(=O)c1ccc([N+](=O)[O-])cc1	/	-3.8	/	4.4	/	i	/
C[C@H](CO)N1C[C@H](C)[C@H](CN(C)S(=O)(=O)c2ccc3ccccc3c2)OCc2cnnn2CCCC1=O	/	-2.0	/	0.4&-2.7&-0.9	/	i	/
Cc1ccccc1-n1cc(CNC(=O)CC2C(=O)NCCN2C/C=C/c2ccccc2)cn1 (stereo unspecified)	-2.8	-1.4	-2.6%	-0.1	4.0	i	0.71
COC(=O)c1ccc2c(=O)n(CCCCCC(=O)O)c(=O)[nH]c2c1	-0.2	2.2	10.3%	0.5	-75.4	i	0.706
Cn1c(=O)n(CCc2ccccc2)c(=O)c2c1nc1n2CCCN1c1ccccc1	-0.6	-0.8	0.8%	10.0	-3.0	i	0.708
O=C(CNC(=O)c1ccccc1F)NCc1ccncc1	/	-0.8	-6.3%	-1.3	-0.9	i	0.678
Cc1cc2oc(C(=O)NCc3ccncc3)c(C)c2cc1C	-1.8	3.0	0.5%	1.0	2.4	i	0.75
CN(C)/C=C/C(=O)c1ccc(OCCN(C)c2ccccn2)cc1	1.0	-0.3	1.1%	-0.1	-0.6	i	0.646
COc1cccc(C(=O)C2CCCN(C/C=C/c3ccccc3OC)C2)c1 (stereo unspecified)	-4.2	-6.0	/	1.8	2.7	i	0.708
COc1ccccc1N1C(=O)c2ccccc2NC1c1ccc(O)cc1 (stereo unspecified)	0.1	0.1	-1.7%	0.5	i	i	0.668
C=CCn1c(O)c(N=NC(=O)c2ccccc2NS(=O)(=O)c2cccs2)c2ccccc21	-0.5	-0.6	-4.4%	-1.1	4.3	i	0.635
COC(=O)c1cc(=O)c2c(ccc3oc(=O)ccc32)[nH]1	/	0.4	/	-4.6	/	i	/
CCCCC(CCC(=O)Nc1cc([N+](=O)[O-])ccc1O)C(=O)O (stereo unspecified)	1.3	3.8	-5.4%	-3.8	9.9	i	0.694
CSc1nc2ccccc2n1CC(=O)Nc1cc(C(F)(F)F)ccc1N1CCOCC1	0.4	-3.0	-1.7%	/	2.9	/	0.698
CCC(=O)Nc1cccc(NC(=O)c2ccc(C)c([N+](=O)[O-])c2)c1	1.7	3.4	14.4%	/	1.2	/	0.657
Cc1ccccc1NS(=O)(=O)c1cc(C(N)=O)ccc1C	1.2	0.4	-13.4%	/	-0.4	/	0.662
CCC(C)(C)NC(=O)C(c1ccc(F)cc1)N(Cc1ccccc1)C(=O)c1cnccn1 (stereo unspecified)	-4.4	1.5	-9.8%	-0.6	5.7	i	0.638
COc1ccc(C2CC(c3ccccc3)=NN2c2ccccc2)c(C(=O)O)c1OC (stereo unspecified)	0.0	-1.4	9.9%	-3.7	i	i	0.659
CSc1nc(=S)c2[nH]c(=S)[nH]c2[nH]1	-2.1	-5.0	2.6%	-5.5	9.1	i	0.646
Cc1ccccc1-n1c(C)nc2ccccc21	-0.1	-0.9	-3.8%	/	4.4	/	0.687
CC(=O)Nc1ccc(-c2ccnc3c2CC(C)(C(=O)NCCN(C)C)O3)cc1 (stereo unspecified)	/	-2.6	/	-3.3	/	i	/
CCN1CCN(S(=O)(=O)c2ccc(Cl)c(C(=O)N(C)CC(=O)Nc3c(C)cccc3C)c2)CC1	/	-2.2	/	0.7	2.4	i	0.678
CC(C)(C)OC(=O)NCc1ccc(CNC(=O)c2nc[nH]c2C(=O)N2CCN(c3ccccc3)CC2)cc1	/	1.7	/	2.8	3.3	i	0.705
COc1ccccc1CN1CC(C(=O)NC2CCOCC2)CCC1=O (stereo unspecified)	0.8	2.7	/	-1.0	-0.6	i	0.663
CC(C)(C)SCCNC(=O)c1ccc(Cl)c([N+](=O)[O-])c1	?	-0.9	-1.2%	/	1.5	/	0.635
S=C(Nc1ccc2c(c1)OCO2)Nc1ccccc1Cl	0.8	-0.2	18.3%	4.7	1.3	i	0.674
COc1ccc2[nH]c(C)cc(=O)c2c1	-3.5	-1.9	-0.9%	/	-6.8	/	0.698
Cc1ccc(S(=O)(=O)N2CCN(C(=O)C(Cc3ccccc3)NC(=O)c3ccccc3)CC2)cc1 (stereo unspecified)	/	2.7	2.0%	-2.9	4.6	i	0.741
